DUX4 inh – inhibitors of DUX4-driven ZSCAN4 reporter expression, primary screen, 293T cells, Gaussia and Italica luciferase | 293T-iDUX4 ZSCAN4-Gaussia luciferase reporter, 24 h; hits give low values | activity change, negative = inhibition, % (concentration not given with the values) | 0.8% of 37,000 active;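 active = -10% or lower and over 25 points stronger than a control reporter; inconclusive = -10% or lower with a smaller gap; inactive = above -10%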;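 also: 0% = median of neutral control wells and -100% = median of positive control wells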
DUX4 inh difference – second read-out of DUX4 inh, no call of its own (marks repeat the call); Gaussia minus Italica difference, %; measured here: selective DUX4 reporter inhibition;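 worked out from the two reporters; negative = selective loss of the DUX4 reporter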
DUX4 inh control – second read-out of DUX4 inh, no call of its own (marks repeat the call); activity change, negative = inhibition, %; measured here: Italica tet-on control reporter;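 0 = neutral control and -100 = positive control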
* marks the source's active call; other numbers are inactive results; ? = inconclusive; . = no result given. The list is partial; rates above refer to the full screens.

no.	Structure	DUX4 inh	DUX4 inh difference	DUX4 inh control
1	CO[C@H]1CN(C)C(=O)c2cc(NC(=O)C3CCOCC3)ccc2OC[C@@H](C)N(C(C)=O)C[C@@H]1C	7	5	2.3
2	O=C(C[C@H]1CC[C@H]2[C@@H](COC[C@H](O)CN2Cc2cccc(F)c2)O1)NCc1ccncc1	1	-2	3.3
3	CCCNC(=O)N1CC2(CN(Cc3ccccn3)C2)c2c(n(C)c3cc(OC)ccc23)[C@@H]1CO	?	.	.
4	CCCNC(=O)Nc1ccc2c(c1)C(=O)N(C)C[C@H](OC)[C@@H](C)CN(Cc1ccccn1)[C@H](C)CO2	3	-2	5.6
5	COc1ccc2c3c(n(C)c2c1)[C@@H](CO)N(CC1CC1)CC31CN(C(=O)CN2CCOCC2)C1	2	0	1.2
6	CC=Cc1ccc2n(c1=O)C[C@H]1[C@H](CO)[C@@H](C(=O)N[C@H](C)c3ccccc3)[C@@H]2N1Cc1ccncc1 (mixture of isomers)	7	9	-2.0
7	CCN(C[C@@H]1[C@@H](c2ccc(-c3ccccc3)cc2)[C@H](CO)N1C(C)=O)C(C)=O	5	2	2.4
8	COc1ccc2c3c([nH]c2c1)[C@@H](CO)N(C(=O)CN1CCOCC1)CC31CN(C)C1	0	-4	3.3
9	C[C@@H]1CN([C@@H](C)CO)S(=O)(=O)c2ccc(Br)cc2O[C@H]1CN(C)Cc1cncnc1	-6	-2	-3.4
10	CCC(=O)N1[C@@H](CO)[C@@H](c2ccccc2)C12CN(Cc1cccnc1)C2	3	-2	5.0
11	COCC(=O)N1CCC2(CC1)CN(S(C)(=O)=O)[C@H](CO)c1c2c2ccc(OC)cc2n1C	8	1	7.4
12	C[C@@H]1CN([C@@H](C)CO)C(=O)Cc2cc(NC(=O)Cn3cnnn3)ccc2O[C@@H]1CN(C)C(=O)Nc1ccc(C(F)(F)F)cc1	-3	-6	2.2
13	O=C(NCCc1ccccc1)[C@@H]1[C@@H](CO)[C@@H]2Cn3c(cccc3=O)[C@H]1N2C(=O)C1CCC1	5	-5	10.0
14	CC(C)CC#Cc1ccc([C@@H]2[C@H]3CN(C(=O)CN4CCOCC4)CC(=O)N3[C@H]2CO)cc1	10	-9	19
15	CCCNC(=O)[C@H]1[C@H](CO)[C@H]2Cn3c(ccc(-c4ccc(F)cc4)c3=O)[C@H]2N1CCC	4	-6	10
16	CCCN1[C@@H]2c3ccc(-c4cccc(F)c4)c(=O)n3C[C@@H]2[C@@H](CO)[C@@H]1C(=O)N(C)C	-1	0	-0.6
17	CN(C)CCCNC(=O)C[C@H]1C=C[C@@H](NC(=O)Cc2cccnc2)[C@H](CO)O1	2	1	1.5
18	O=C(NCc1ccccc1)[C@@H]1[C@@H](CO)[C@@H]2Cn3c(cccc3=O)[C@H]1N2	4	2	2.8
19	C[C@H](CO)N1C[C@H](C)[C@H](CN(C)Cc2ccc3c(c2)OCO3)Oc2ccc(NC(=O)c3ccncc3)cc2CC1=O	2	4	-1.8
20	O=C(C[C@H]1CC[C@@H](NC(=O)C2CCC2)[C@H](CO)O1)NCc1ccncc1	2	2	0.2
21	C[C@@H]1CN([C@H](C)CO)C(=O)c2cccc(NC(=O)C3CCOCC3)c2O[C@@H]1CN(C)C(=O)Nc1ccc2c(c1)OCO2	1	2	-1.1
22	CCCC#Cc1ccc([C@H]2[C@@H](CO)N3C(=O)CN(C(=O)Nc4cccc(F)c4)C[C@H]23)cc1	-7	-3	-4.6
23	CC(=O)NC[C@H]1[C@@H](c2ccc(-c3cccc(F)c3)cc2)[C@@H](CO)N1C(C)=O	-1	-2	1.0
24	N#C[C@H]1[C@@H](c2ccccc2)[C@H](CO)N1C(=O)c1ccc2c(c1)OCO2	1	-1	2.5
25	CC(C)CC#Cc1ccc([C@H]2[C@@H](CO)N3C(=O)CN(C(=O)Nc4ccc(F)cc4)C[C@@H]23)cc1	?	.	.
26	CC(C)CC#Cc1ccc([C@H]2[C@@H](CO)N3C(=O)CN(C(=O)Nc4cc(F)ccc4F)C[C@H]23)cc1	0	-1	0.7
27	CCS(=O)(=O)N1[C@H](CO)[C@H](c2ccc(C#CC(C)C)cc2)[C@@H]1C#N	1	1	-0.1
28	C[C@H](CO)N1C[C@H](C)[C@@H](CN(C)C)Oc2cc(C#Cc3ccccc3)ccc2S1(=O)=O	4	0	4.2
29	COc1cccc(NC(=O)N2C[C@H](O)COC[C@@H]3O[C@@H](CC(=O)NCCCN4CCOCC4)CC[C@H]32)c1	20	9	11
30	COCC(=O)N1CC2(C1)CN(Cc1cccc(F)c1)[C@H](CO)c1c2c2ccc(OC)cc2n1C	-2	7	-8.2
31	COC(=O)C[C@@H]1CC[C@@H]2[C@H](COC[C@H](O)CN2S(=O)(=O)c2cn(C)cn2)O1	4	10	-5.9
32	Cc1noc(C)c1NC(=O)Nc1ccc2c(c1)C(=O)N([C@@H](C)CO)C[C@@H](C)[C@@H](CN(C)S(=O)(=O)c1cn(C)cn1)OCCCC[C@H](C)O2	-1	-1	0.1
33	CCCNC(=O)[C@H]1[C@H](CO)[C@H]2Cn3c(ccc(C4=CCCC4)c3=O)[C@@H]1N2C(=O)CC1CC1	2	3	-0.9
34	CN(C)C(=O)C[C@@H]1C=C[C@@H](NC(=O)c2ccc(F)cc2)[C@@H](CO)O1	-3	-4	0.8
35	CCCNC(=O)N1C[C@H](C)[C@H](OC)CN(C)C(=O)c2cc(NS(C)(=O)=O)ccc2OC[C@H]1C	0	-1	0.9
36	O=C(c1ccncc1)N1C[C@@H]2[C@H](c3ccccc31)[C@@H](CO)N2C(=O)c1ccccn1	0	3	-2.4
37	CN(C)C(=O)C[C@@H]1CC[C@H]2[C@@H](COC[C@H](O)CN2C(=O)c2ccncc2)O1	1	0	1.3
38	Cc1noc(C)c1S(=O)(=O)N(C)C[C@@H]1OCCCC[C@H](C)Oc2ccc(N(C)C)cc2C(=O)N([C@H](C)CO)C[C@H]1C	-2	-5	3.0
39	Cc1ccccc1S(=O)(=O)N1CC[C@@H]2[C@H](CO)Nc3ccc(-c4ccccc4)cc3[C@@H]21	?	.	.
40	COc1ccc2c3c([nH]c2c1)[C@H](CO)N(C(=O)c1cccnc1)CC31CN(C(=O)NC(C)C)C1	5	-7	13
41	O=C(C[C@@H]1C[C@H]2c3cc(NC(=O)NC4CCCCC4)ccc3O[C@H]2[C@H](CO)O1)NCCc1ccccc1	-5	-4	-0.5
42	N#C[C@H]1[C@H](c2ccccc2-c2cccc(F)c2)[C@H](CO)N1C(=O)CN1CCOCC1	20	9	11
43	O=C(C1CCCC1)N1CC2(C1)[C@H](c1ccccc1)[C@@H](CO)N2Cc1cncnc1	8	5	3.1
44	O=C(C[C@@H]1C[C@@H]2c3cc(NC(=O)NC4CCCC4)ccc3O[C@@H]2[C@@H](CO)O1)NCc1ccc2c(c1)OCO2	-3	-3	0.6
45	COc1ccc(NC(=O)Nc2ccc3c(c2)[C@@H]2C[C@H](CC(=O)N[C@@H](C)c4ccccc4)O[C@H](CO)[C@@H]2O3)cc1	8	6	1.6
46	COc1ccc2c3c(n(C)c2c1)[C@@H](CO)N(C(=O)CN(C)C)CC31CCN(Cc2cncnc2)CC1	4	7	-3.1
47	C[C@@H]1CCCCO[C@H](CN(C)S(C)(=O)=O)[C@H](C)CN([C@@H](C)CO)C(=O)c2cc(NC(=O)NC3CCCCC3)ccc2O1	7	6	1.4
48	CO[C@H]1CN(C)C(=O)c2cc(NC(=O)c3ccno3)ccc2OC[C@H](C)NC[C@H]1C	3	1	1.5
49	CO[C@H]1CN(C)C(=O)c2ccc(NC(=O)C3CCC3)cc2OC[C@H](C)N(C(=O)CN(C)C)C[C@H]1C	2	-1	2.8
50	CCCNC(=O)N1CC2(CN(C(C)=O)C2)c2c(n(C)c3cc(OC)ccc23)[C@H]1CO	5	-5	9.3
51	CC(=O)N(C)C[C@@H]1OCc2ccccc2-c2ccccc2C(=O)N([C@@H](C)CO)C[C@@H]1C	14	17	-2.6
52	CN1c2ccc(Br)cc2[C@H]2[C@H](CCN2C(=O)C2CCC2)[C@@H]1CO	7	7	0.7
53	CCNC(=O)Nc1ccc2c(c1)C(=O)N(C)[C@H]1CC[C@@H](CC(=O)NC3CCCCC3)O[C@@H]1CO2	-4	-2	-2.6
54	O=S(=O)(c1ccc(F)cc1)N1CCCCN2[C@H](CO)[C@H](c3ccc(-c4cncnc4)cc3)[C@@H]2C1	?	.	.
55	C[C@@H]1CN([C@H](C)CO)C(=O)c2ccccc2-c2ccccc2CO[C@@H]1CN(C)Cc1ccc(C(=O)O)cc1	3	-5	7.7
56	COc1ccc2c3c(n(C)c2c1)[C@H](CO)N(C(=O)CN1CCOCC1)CC31CCN(C(=O)CC2CC2)CC1	5	8	-2.4
57	CN1[C@@H]2c3ccc(-c4cccc(F)c4)c(=O)n3C[C@@H]2[C@@H](CO)[C@@H]1C(=O)NC1CCCCC1	-8	-3	-5.6
58	C[C@@H]1CN([C@H](C)CO)C(=O)c2cc(NC(=O)C3CCCCC3)ccc2O[C@H]1CN(C)Cc1ccc2c(c1)OCO2	-1	-3	2.0
59	CC=Cc1ccc2n(c1=O)C[C@H]1[C@H](CO)[C@@H](C(=O)NCc3ccccc3Cl)N(S(C)(=O)=O)[C@@H]21 (mixture of isomers)	-5	-9	3.8
60	CCCNC(=O)[C@H]1[C@H](CO)[C@H]2Cn3c(ccc(C4=CCCC4)c3=O)[C@H]2N1C(=O)CC	0	-5	5.0

Going on with the list:
no.	Structure	DUX4 inh	DUX4 inh difference	DUX4 inh control
61	CC(=O)N1CCCCN2[C@@H](CO)[C@@H](c3ccc(Br)cc3)[C@@H]2C1	17	4	13
62	O=C(c1cccc(F)c1)N1CC(=O)N2[C@H](CO)[C@H](c3ccc(C#Cc4ccc(F)cc4)cc3)[C@@H]2C1	-4	-11	6.6
63	Cc1ccccc1S(=O)(=O)N1C[C@H](O)COC[C@@H]2O[C@@H](CC(=O)NCc3ccccc3Cl)CC[C@H]21	8	15	-6.9
64	CC(C)NC(=O)N1[C@H](CO)[C@@H](c2ccccc2)C12CN(C(=O)CN(C)C)C2	8	11	-3.2
65	C[C@H](CO)N1C[C@H](C)[C@H](CN(C)S(=O)(=O)c2cccc(F)c2)Oc2ncc(C#CC3(O)CCCC3)cc2C1=O	-1	-1	0.2
66	CCC(=O)N1[C@@H](CO)[C@H](c2ccc(-c3ccc(C#N)cc3)cc2)C12CN(C(C)=O)C2	18	17	1.1
67	CCC(=O)N1CC2(C1)[C@@H](c1ccc(-c3ccc(F)cc3)cc1)[C@@H](CO)N2C(=O)CC	15	9	5.7
68	CCCC#Cc1ccc([C@H]2[C@@H](CO)N3C(=O)CN(S(=O)(=O)c4ccccc4C)C[C@H]23)cc1	?	.	.
69	C[C@H](CO)N1C[C@H](C)[C@H](CN(C)Cc2cccc(C(=O)O)c2)OCc2cn(nn2)CCCC1=O	3	-3	5.3
70	C[C@H]1CN([C@@H](C)CO)C(=O)c2cccc(NC(=O)c3cnccn3)c2O[C@@H]1CN(C)C(=O)NC1CCCCC1	-7	-5	-2.1
71	CO[C@@H](CN(C)Cc1ccc(-c2ccccn2)cc1)[C@@H](C)CN(C(=O)Nc1ccc(F)cc1)[C@H](C)CO	-2	-3	0.8
72	C[C@H](CO)N1C[C@H](C)[C@H](CN(C)Cc2ccc(C(=O)O)cc2)Oc2ccc(NC(=O)Nc3ccc(C(F)(F)F)cc3)cc2C1=O	2	1	1.1
73	COc1cccc(S(=O)(=O)N2C[C@H](O)COC[C@H]3O[C@@H](CC(=O)N4CCCCC4)CC[C@@H]32)c1	1	0	0.8
74	CN(C)CC#Cc1ccc([C@@H]2[C@H](CO)N3CCCCN(S(=O)(=O)c4ccccc4)C[C@@H]23)cc1	20	18	2.1
75	CO[C@H]1CC[C@H]2CCOc3c(C#N)cccc3C(=O)N(C)[C@H](C)C(=O)N(C)C[C@@H]1O2	4	-1	4.7
76	CN1CCN(C(=O)C[C@@H]2CC[C@H]3[C@@H](COC[C@@H](O)CN3C(=O)c3ccccc3F)O2)CC1	7	2	5.3
77	CC(C)CC#Cc1cnc2c(c1)C(=O)N([C@H](C)CO)C[C@H](C)[C@H](CN(C)Cc1cccc(F)c1)O2	0	1	-1.6
78	O=C(NC1CCCC1)N1CCCCN2[C@H](CO)[C@H](c3ccc(-c4cccnc4)cc3)[C@H]2C1	-1	2	-2.6

From PubChem BioAssay
